High-throughput results as filed in PubChem.
D2 ag = agonists of human D2 dopamine receptor (beta-arrestin). P14416. DiscoveRx PathHunter D2 beta-arrestin, luminescence, 90 min; 100% = 57 uM dopamine signal. activation, % (concentration not given with the values). 360,000 tested, 0.084% active; in the data active = activation above about 40%; inconclusive = about 15% to 40%; inactive = below about 15%; note: compound concentration not given in the record; the text of the record calls up to 30% inactive
Target sequence (P14416 whole entry, looked up): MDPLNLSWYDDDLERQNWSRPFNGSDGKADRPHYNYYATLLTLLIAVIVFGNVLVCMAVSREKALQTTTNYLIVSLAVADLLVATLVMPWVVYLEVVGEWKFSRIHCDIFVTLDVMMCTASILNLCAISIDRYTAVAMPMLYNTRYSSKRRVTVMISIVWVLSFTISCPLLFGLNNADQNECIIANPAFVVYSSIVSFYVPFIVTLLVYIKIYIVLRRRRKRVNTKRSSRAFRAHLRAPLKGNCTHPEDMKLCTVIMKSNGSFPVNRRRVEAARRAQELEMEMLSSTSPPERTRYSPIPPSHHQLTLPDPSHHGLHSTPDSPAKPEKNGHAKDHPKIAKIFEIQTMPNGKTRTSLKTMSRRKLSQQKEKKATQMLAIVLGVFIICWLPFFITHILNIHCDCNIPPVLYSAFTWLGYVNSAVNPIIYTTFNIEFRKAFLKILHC
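DiscoveRx PathHunter D2 beta-arrestin cells (2,100/well) attached overnight, then compound-stimulated 90 min at 37 C in HBSS/10 mM HEPES/0.1% Tween-20 buffer; beta-galactosidase complementation read by luminescence after 1 h at ambient temperature. Dopamine 57 uM final (EC100) as control.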
PINK1 expr mod = modulators of PINK1 expression; PINK1 immunofluorescence, high-content cytometry, 24 h; Potency, µM (top dose mostly 76.6 µM), for the others: at the highest dose activation (PINK1 increase), actives largely listed as activators; 410,000 tested, 0.2% active; active = well fitted activation curve with a large enough effect; inconclusive = small, poorly fitted or top-dose-only effect; inactive = flat fitted curve, though single readings scatter; cell line not stated here;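 note: potency is the fitted concentration of half-maximal effect; % of control where 0% means no effect; nearly all actives have a fitted effect of over 65% in size; a mitochondrial uncoupler was the plate control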
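Decision-based qHTS: stable cells, 24 h exposure to five compound concentrations, CCCP as control. Fixed cells stained for PINK1 plus nuclear, mitochondrial and cell markers, cytometer read.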
Six1-Eya2 blk = inhibitors of human Six1/Eya2 interaction; activity change, % (no concentration beside the values); AlphaScreen GST-Six1/His-Eya2 binding, biochemical; active compounds read low; control for the full effect not named in the record; AID 651725; 360,000 tested, 0.56% active; in the data active = activity change below about -65%; inconclusive = about -30% to -65%; inactive = above about -30%; note: % is set by controls: 0 for no effect and ±100 for the full control effect
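Six1/Eya2 binding was read as AlphaScreen signal after compounds were pinned into GST-Six1 plus His-tagged Eya2 (5X stock 250/500 nM) in pH 8.0 Tris/NaCl/TCEP buffer, beads added, then incubated 1 h, 37 C, dark.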
CtBP-E1A inh = blocks the CtBP interaction with E1A | 340,000 tested, 0.49% active | AlphaScreen GST-E1A/His-CtBP binding, 1536-well; active compounds read low; control for the full effect not named in the record | AID 651724 | activity change, % (concentration not given with the values); in the data active means activity change below about -65%; inconclusive means about -30% to -65%; inactive means above about -30%; note: % is set by controls: 0 for no effect and ±100 for the full control effect
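Steps: dispense buffer (Tris pH 8.0, NaCl 300 mM, TCEP 1 mM, BSA, Tween 20); add 5X protein mix (GST-E1A, His-CtBP, 125 nM each); pin 23 nL compound; 2 h at 37 °C, dark; add 5X beads (50 ug/mL); 1 h; read.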
D2 PAM = human D2 receptor positive allosteric modulation | P14416 | DiscoveRx D2 beta-arrestin cells, luminescence, 90 min; 100% = 57 uM dopamine signal | potentiation, % (concentration not given with the values) | 360,000 tested, 0.23% active; active = potentiation of 50% or more; inconclusive = 30% to 50%; inactive = 30% or less;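 note: compound concentration not given in the record; tested on top of an EC20 dose of dopamine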
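PathHunter D2 cells, attached overnight at 37 deg C, received compound in DMSO plus dopamine at EC20 (50 nM final) for 90 min at 37 deg C. Beta-arrestin recruitment was read as luminescence after 1 h with detection reagent at ambient temperature.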
TRPML1 ag = human mucolipin-1 channel agonism. Q9GZU1. activation, % (test concentration not listed). 410,000 tested, 0.12% active. TRPML1-expressing cells, Ca2+ dye fluorescence, FDSS; host cell line not named in the record; reference of the full effect not given here; in the data active = activation above about 50%; inconclusive = about 30% to 50%; inactive = below about 30%; note: 0% is about no effect; the text of the record puts the active cut at 80%
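Tet-induced TRPML1-DL cells, 1,500 per well, cultured overnight, were loaded with a no-wash Ca2+ dye for 45–90 min. Calcium fluorescence was recorded on the FDSS for 110 s after compound addition, before the EC80 agonist (4 uM 54-4) was added.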
* hit, by the source's call; ? = inconclusive; / = not tested or not shown; [ ] = dose if it differs, or a comment.

Second line of a record – D2 ag	PINK1 expr mod	Six1-Eya2 blk	CtBP-E1A inh	D2 PAM	TRPML1 ag
#1 CCNC(=O)C1(C)CCN(C(=O)c2c(F)ccc(C)c2F)C1 (configuration not stated)
 : -1.2	1.1%	4.2	3.5	-4.2	0.1
#2 CC(C)(C)N1CC23C=CC(C[C@@H]2C1=O)O3 (some centres not stated)
 : -0.2	0.7%	4.7	/	-2.8	0.1
#3 CCOC(=O)/C(C#N)=C/c1ccc(N2CCN(C)CC2)cc1
 : -2.1	-1.4%	3.1	11.6	-10.3	1.0
#4 O=C(CNC(=O)c1ccc2c(c1)OCCO2)N/N=C/c1cccc(Br)c1
 : 2.1	5.1%	-3.9	-1.5	-22.8	0.8
#5 Cc1cc(C)nc(SCC(=O)OC(C)C(=O)Nc2ccccc2)n1 (configuration not stated)
 : 2.6	0.0%	-1.4	0.6	17.0	0.0
#6 CCOC(=O)C1CCCN(C(=O)CNS(=O)(=O)c2ccc(Br)s2)C1 (configuration not stated)
 : -1.0	-0.5%[38.3 µM]	0.1	9.5	-5.8	-0.4
#7 Cc1cccc(NC(=O)CN2C(=O)S/C(=C\c3ccc(-c4cccc(C(=O)O)c4C)o3)C2=O)c1
 : -3.2	-2.5%	-5.1	-11.1	-2.9	0.8
#8 CCc1cc(C)cc(OCCNC(=O)c2cncc(Br)c2)c1
 : -6.2	5.9%	-2.5	10.3	-17.9	1.3
#9 O=C(Nc1cccnc1)Nc1ccccc1Cl
 : -2.1	-4.2%[38.3 µM]	2.6	5.3	-3.0	-0.9
#10 O=C(O)c1ccc(S(=O)(=O)N2CCC(Cc3ccccc3)CC2)cc1
 : -2.4	-0.4%	-3.7	-6.6	-8.3	0.2
#11 O=C(Cn1cnc2ccccc2c1=O)NNC(=O)c1cccc([N+](=O)[O-])c1
 : 9.1	0.0%	-0.1	/	2.7	-0.3
#12 Cc1cc(C2=NNC(=NCCc3ccccc3)SC2)c(C)n1CC1CCCO1 (configuration not stated)
 : 4.0	?	-4.0	21.3	-16.6	0.4
#13 CCc1nc2ccccc2c(C(=O)OCC(=O)N(C)Cc2ccccc2)c1C
 : -6.8	2.4%	1.6	4.8	0.2	0.7
#14 C#CCNC(=O)C1=C[C@@H](c2ccc3c(c2)OCO3)C[C@@H](OCCCCO)O1
 : 2.6	10.3%	-3.1	1.3	-0.1	-0.7
#15 O=C(OCc1cn([C@@H]2CN(C(=O)c3cccs3)[C@@H](c3ccccc3)C[C@H]2O)nn1)c1ccccc1
 : 2.3	-1.2%	-9.7	0.4	5.1	2.5
#16 COc1ccc([C@H]2C[C@@H](O)[C@H](n3cc(COC(=O)c4ccccc4)nn3)CN2Cc2cccs2)cc1
 : -4.2	1.7%	1.5	3.2	-1.4	1.8
#17 Cc1cc(C)cc(NCc2cc(=O)oc3cc(C)c(O)cc23)c1
 : 1.0	3.3%	0.9	-0.9	3.1	1.1
#18 Cc1sc2ncnc(N/N=C/c3ccccc3O)c2c1C
 : -7.0	-0.7%	-86.1*	-87.6*	-20.1	2.5
#19 CCNc1cc(Nc2c(C)n(C)n(-c3ccccc3)c2=O)c([N+](=O)[O-])c2nonc12
 : -3.5	-0.8%	0.0	2.0	-4.6	0.4
#20 C=CCN(c1ccccc1)S(=O)(=O)c1cccc(C(=O)NCC2CCCO2)c1 (configuration not stated)
 : -3.3	2.6%	5.5	1.0	-18.3	0.1

Compound profiles, as listed above:
`C#CCNC(=O)C1=C[C@@H](c2ccc3c(c2)OCO3)C[C@@H](OCCCCO)O1` is listed as D2 ag: 2.6; PINK1 expr mod: 10.3%; Six1-Eya2 blk: -3.1; CtBP-E1A inh: 1.3; D2 PAM: -0.1; TRPML1 ag: -0.7
`C=CCN(c1ccccc1)S(=O)(=O)c1cccc(C(=O)NCC2CCCO2)c1` (configuration not stated) is listed as D2 ag: -3.3; PINK1 expr mod: 2.6%; Six1-Eya2 blk: 5.5; CtBP-E1A inh: 1.0; D2 PAM: -18.3; TRPML1 ag: 0.1

More results follow.
Second line of a record – D2 ag	PINK1 expr mod	Six1-Eya2 blk	CtBP-E1A inh	D2 PAM	TRPML1 ag
#21 CC1CCN(c2ccc(-c3cccc(NC(=O)c4ccco4)c3)nn2)CC1
 : 3.7	4.4%	-10.1	-11.9	12.5	1.0
#22 CC(=O)Nc1ccc(N(C(=O)c2ccco2)C(C(=O)NC2CCCCC2)c2ccccc2)cc1 (configuration not stated)
 : 0.4	4.7%	-0.6	-11.4	-11.9	-0.8
#23 O=C1NC2(Nc3ccccc31)C(=O)Nc1ccc(Br)cc12 (configuration not stated)
 : 13.8	2.2%	-15.7	/	-17.0	0.0
#24 Cc1ccc(N2C(N)=NC(N)=NC23CCCC3)c(C)c1
 : -1.6	9.8%	0.0	13.9	-1.8	0.0
#25 COc1ccc(OCC(=O)NNC(=O)c2cccs2)cc1
 : 0.6	-0.8%	3.0	5.0	10.5	2.1
#26 CC1=NN(C(C#N)c2ccccc2C)C(c2ccccc2)C1 (configuration not stated)
 : -0.7	0.0%	-1.7	12.5	0.2	-0.5
#27 COc1ccc(CNC(=S)Nc2cccc(F)c2)cc1
 : 5.7	0.6%	-15.2	-2.6	-2.3	0.6
#28 Cc1ccc(C(=O)OCC(=O)c2ccccc2)cc1
 : 6.0	0.2%	19.7	31.1	-9.9	1.2
#29 COCC(C)n1c(SCC(=O)NC(=O)NC2CCCC2)nc2ccccc2c1=O (configuration not stated)
 : 4.6	-0.1%	6.4	/	15.1	2.0
#30 O=C(NN1C(=O)C2C3C=CC(O3)C2C1=O)c1cccc(Br)c1 (configuration not stated)
 : -0.8	0.7%	0.0	-1.0	6.3	-0.4
#31 COc1cc(NS(=O)(=O)c2ccc(F)cc2)c(C(=O)O)cc1OC
 : 0.3	0.7%	6.7	-0.3	-7.7	2.3
#32 COc1ccc(-c2oc(=O)c3cc(OC)c(OC)cc3c2C#C[C@]2(O)CC[C@H]3[C@@H]4CCc5cc(OC)ccc5[C@H]4CC[C@@]32C)cc1
 : -2.6	-0.1%	-1.0	0.4	-0.9	2.8
#33 Cc1cccc(NC(=O)CCC2CCN(Cc3nccs3)CC2)c1
 : 0.7	2.9%	5.7	/	-11.7	0.8
#34 COc1ccccc1NC(=O)C(C)NC(c1ccccc1)c1ccccc1 (configuration not stated)
 : -1.0	2.8%	6.7	5.9	-13.9	-0.3
#35 O=C(Nc1ccnn1C1CCN(Cc2ccc(CO)o2)CC1)c1ccccc1Cl
 : 10.0	-0.3%	3.4	8.1	22.3	0.0
#36 CC(=O)Oc1cc(C(=O)OCC(=O)NC23CC4CC(CC(C4)C2)C3)cc(OC(C)=O)c1OC(C)=O
 : ?	-1.0%	-1.0	3.1	1.8	0.3

A few values from the list.
Value for compound 28 under PINK1 expr mod: 0.2%
Value for compound 30 under Six1-Eya2 blk: 0.0
Value for compound 24 under Six1-Eya2 blk: 0.0
Value for compound 36 under CtBP-E1A inh: 3.1
Value for compound 31 under TRPML1 ag: 2.3

Four records drawn at random from those above, as already listed:
Second line of a record – D2 ag	PINK1 expr mod	Six1-Eya2 blk	CtBP-E1A inh	D2 PAM	TRPML1 ag
#16 COc1ccc([C@H]2C[C@@H](O)[C@H](n3cc(COC(=O)c4ccccc4)nn3)CN2Cc2cccs2)cc1
 : -4.2	1.7%	1.5	3.2	-1.4	1.8
#33 Cc1cccc(NC(=O)CCC2CCN(Cc3nccs3)CC2)c1
 : 0.7	2.9%	5.7	/	-11.7	0.8
#5 Cc1cc(C)nc(SCC(=O)OC(C)C(=O)Nc2ccccc2)n1 (configuration not stated)
 : 2.6	0.0%	-1.4	0.6	17.0	0.0
#28 Cc1ccc(C(=O)OCC(=O)c2ccccc2)cc1
 : 6.0	0.2%	19.7	31.1	-9.9	1.2
